Hsc70: Hsc70 inhibitors, probe displacement, primary screen, biochemical, fluorescence polarization (AID 568). 83,000 tested, under 10 active. Hsc70 fluorescence polarization, probe displacement; higher % means a stronger effect; strong numbers were not always called active. one-dose displacement, % at 20 µM; IC50 in µM for titrated hits;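 active = displacement above 50% without optical interference and an IC50 on retest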;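 note: ATPase domain with a fluorescein-tagged ATP probe; 0% = vehicle and 100% = excess ADP; read after one hour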
MT1-MMP reporter: MT1-MMP gene expression reporter suppression – cell-based, luciferase reporter, luminescence (AID 618); MT1-MMP promoter luciferase reporter cells, luminescence; calls from a first round at 10 µM; hits with a dose series show EC50 in µM; 87,000 tested, 0.62% active;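 active = over half of the reporter light lost at 10 µM or EC50 under 50 µM; inactive = the rest and hits that failed the dose series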;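 note: actives suppress MT1-MMP promoter-driven transcription so potencies describe inhibitors; HT1080 fibrosarcoma cells; overnight exposure; toxic or luciferase-blocking compounds were not removed from the actives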
WNV protease inh: blocks West Nile virus NS2B-NS3 protease activity; AID 577; P06935; 65,000 tested, 0.18% active; WNV NS2B-NS3 protease, fluorogenic substrate Ex360/Em465; active compounds read low; z-score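 (tested at a level between 10 and 100 µM)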;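 active = z-score at -3 or under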;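 note: score is relative to mean and spread of the compound wells of a plate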
Target sequence (P06935 1371-1501 limits assumed): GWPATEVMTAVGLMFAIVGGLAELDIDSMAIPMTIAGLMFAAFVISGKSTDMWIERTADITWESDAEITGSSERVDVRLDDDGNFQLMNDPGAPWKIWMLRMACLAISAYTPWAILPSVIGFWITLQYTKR
Target sequence (P06935 1502-1679 limits assumed): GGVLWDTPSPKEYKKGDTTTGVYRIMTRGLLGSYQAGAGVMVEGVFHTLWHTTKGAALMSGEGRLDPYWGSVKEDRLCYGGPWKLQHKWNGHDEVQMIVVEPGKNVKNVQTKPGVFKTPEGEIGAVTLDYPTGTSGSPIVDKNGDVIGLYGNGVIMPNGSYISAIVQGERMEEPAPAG
* marks the source's active call; other numbers are inactive results; i = inactive; . = not tested or not shown.

SMILES | Hsc70 | MT1-MMP reporter | WNV protease inh
O=C1CSC2(C(=O)N3CCCc4cccc2c43)N1c1cccc(C(F)(F)F)c1 (stereo not given) | 2.5% | i | .
O=S(=O)(NCc1ccccn1)c1ccc(F)cc1 | 3.8% | i | -0.56
C=CCn1c(=O)c2ccccc2n2c(SCC(=O)N3CCCc4ccccc43)nnc12 | 21.1% | i | -1.23
CC(=O)Nc1ccc2c(c1)C(=O)N(C1CCCCC1)C2=O | -4.9% | i | -0.51
c1ccn2c(SCc3cn4ccsc4n3)nnc2c1 | -3.8% | i | -0.25
Cn1c(SCC(=O)NCc2ccc(F)cc2)nc2ccccc21 | -1.5% | i | -1.02
CC(C)CC(=O)Nc1ccccc1N1CCN(C(=O)c2ccccc2)CC1 | -1.6% | i | -0.9
Cc1[nH]nc2nc(SCC(=O)NCC3CCCO3)n(-c3ccc(Br)cc3)c(=N)c12 (stereo not given) | 3.8% | i | -0.29
COc1ccc2cc3cc(C(=O)NCCN4CCc5ccccc5C4)oc3nc2c1 | -11.1% | i | 3.14
COc1ccccc1OCc1ccc(C(=O)NC(C)(C)C)o1 | 6.6% | i | -0.62
COc1ccc(CCNC(=O)C2(C)CCC(=O)N2Cc2ccc3c(c2)OCO3)cc1OC (stereo not given) | -7.5% | i | 0.47
c1ccc(OCCOc2ncnc3sccc23)cc1 | -2.8% | i | -0.28
CCCn1c(=O)c(C(=O)NCc2ccncc2)c(O)c2ccccc21 | 7.1% | i | -0.73
CC(C)C(NS(=O)(=O)c1cccc2nsnc12)C(=O)N1CCc2ccccc2C1 (stereo not given) | -4.2% | i | 0.09
COc1ccccc1Cn1nnc2c(=O)[nH]c(C3CCN(C(=O)c4ccc(C)cc4)CC3)nc21 | 2.8% | i | 0.73
CCOc1ccccc1N1Cc2ccccc2C1 | 4.4% | i | .
CCCCOC(=O)CSc1nc(N)c(C#N)c(-c2ccc(OCC)cc2)c1C#N | -7.7% | i | -0.73
O=c1c2ccccc2nc(SCc2cn3ccsc3n2)n1-c1ccccc1 | -5.6% | i | -0.58
COc1ccc(-c2ccc(-c3noc(C)n3)c(OC)n2)cc1 | 1.2% | i | 1.39
CCOC(=O)C(NC(=O)Nc1cccc(C)n1)(OCC(F)(F)F)C(F)(F)F (stereo not given) | -7.4% | i | -0.43
CN1CCN(C(=O)CN(c2cccc(Cl)c2)S(=O)(=O)c2ccccc2)CC1 | 2.6% | i | -0.79
CC(C)CNC(=O)NC1C(NC(=O)NCC(C)C)N(C)C(=O)N1C (stereo not given) | -5.8% | i | -0.27
CCC(=O)N1CCN(c2cc3c(cc2F)c(=O)c(C(=O)O)cn3CC)CC1 | 11.0% | i | -1.99
S=c1[nH]nc(-c2ccccc2)n1C1C=CCCC1 (stereo not given) | -1.6% | i | -0.63
COC(=O)c1cc(=O)n(Cc2cccs2)c(=NCc2cccs2)s1 | -5.6% | i | -0.62
COCCCN(C(=O)c1ccco1)c1nc(-c2cc(OC)ccc2OC)cs1 | 0.9% | i | -0.07
O=C(O)CCC(=O)Nc1nc(-c2ccccc2)cs1 | 1.2% | i | -0.14
CSc1nc(-c2ccc(Cl)cc2)nn1S(=O)(=O)c1ccc(Cl)cc1 | 3.5% | i | .
Clc1cc(Cl)c(OCc2nc(-c3ccccn3)no2)cc1Cl | -0.8% | i | 0.42
O=C(OCc1ccc(Cl)cc1Cl)c1cccnc1Cl | 1.7% | i | .
CC(C)CCOc1ccc(C(=O)NCCC(=O)N2CCOCC2)cc1 | 2.6% | i | -1.85
CCC(=O)N1CCN(c2ccccc2NC(=O)COc2cc(C)ccc2C(C)C)CC1 | -0.2% | i | 0.89
O=C(CCc1ccccc1)Nc1c(F)c(F)c(F)c(F)c1F | 0.5% | i | -0.55
O=C(CSCC(=O)Nc1nccs1)Nc1ccccc1 | -5.6% | i | 0.67
C=CCOc1ccc(C2/C(=C(\O)c3ccc(F)cc3)C(=O)C(=O)N2CCCN(C)C)cc1 (stereo not given) | 3.4% | i | -0.77
CC(NC(=O)Nc1nccs1)(C(F)(F)F)C(F)(F)F | -2.4% | i | 0.82
CCOc1ccc(S(=O)(=O)NCc2ccco2)c2ccccc12 | -0.3% | i | -1.7
O=C(NCc1ccco1)C(Cc1ccccc1)N1C(=O)C2C3C=CC(C3)C2C1=O (stereo not given) | 1.2% | i | -0.21
O=C(O)c1c2c(nc3ccc(S(=O)(=O)N4CCC(C(=O)N5CCCCC5)CC4)cc13)CCCC2 | -4.1% | i | -0.07
CNC(=O)CN(c1cccc(Br)c1)S(C)(=O)=O | -1.3% | i | -1.13
Cc1sc2c(c1C)c(=O)n(-c1ccccc1)c1nnc(C)n21 | -1.3% | i | 1.13
COc1ccc(OC)c(-c2cc(C(=O)Nc3cc(C)on3)no2)c1 | 8.5% | i | -0.19
O=C(CCN1CCN(Cc2ccccc2)CC1)Nc1cccc(Cl)c1 | -0.2% | i | -0.48
CN1C(=O)C2(Nc3ccccc3-c3nc4ccccc4n32)c2ccccc21 (stereo not given) | 2.0% | i | -1.09
COc1ccc(N2C(=O)CC(Sc3ncn[nH]3)C2=O)c(OC)c1 (stereo not given) | 1.3% | i | -0.4
CCc1nccn1S(=O)(=O)c1ccc2ccc(C)cc2c1 | -5.3% | i | 1.64
CCCCN=C(C)C1=C(O)CSC1=O | -1.4% | i | 0.25
O=C(O)C1C2CCCCC2=C2CCCCC2C1C(=O)O (stereo not given) | 34.4% | i | -1.1

Reformatted with two lines to a compound: 3 of the compounds above.
Value order – Hsc70	MT1-MMP reporter	WNV protease inh
> COc1ccc(N2C(=O)CC(Sc3ncn[nH]3)C2=O)c(OC)c1 (stereo not given)
 : 1.3%	i	-0.4
> CCc1nccn1S(=O)(=O)c1ccc2ccc(C)cc2c1
 : -5.3%	i	1.64
> CCCCN=C(C)C1=C(O)CSC1=O
 : -1.4%	i	0.25

Other results.
SMILES | Hsc70 | MT1-MMP reporter | WNV protease inh
Cc1cccc(NC(=O)NCc2ccccn2)c1 | 1.7% | i | .
Cc1ccc(Nc2nc(Oc3ccc(=O)[nH]n3)nc(N(C)C)n2)cc1 | 5.9% | i | 0.56
Cc1cc(C)cc(N(CC(=O)NCc2ccc3c(c2)OCO3)C(=O)CCC(=O)Nc2ccccn2)c1 | -0.8% | i | 2.39
Cc1ccc(SC(C)C(=O)NCc2cccnc2)cc1 (stereo not given) | -1.1% | i | .
CCOC(=O)Cc1csc(NC(=O)CSc2nnc(-c3ccncc3)n2Cc2ccco2)n1 | -2.7% | i | -0.53
Cc1ccc(CN2CCNC(=O)C2CC(=O)O)o1 (stereo not given) | 1.0% | i | -0.59
O=C(NCc1cccc(Cl)c1)c1cnn2c1NC(c1ccco1)CC2C(F)(F)F (stereo not given) | 5.4% | i | .
O=C(CSCCc1ccccn1)Nc1ccccn1 | -3.6% | i | -0.47
O=C(Nc1ccc(S(=O)(=O)N2CCCCC2)cc1)c1ccc(CN2CCOCC2)cc1 | -2.6% | i | .
Cc1cc(C)c2c(C)nn(C3CCCCC3)c2n1 | 3.5% | i | 0.85
CC1=C(C)CC2C(=O)N(c3cccc4ccccc34)C(=O)C2C1 (stereo not given) | 6.9% | i | -0.49
COc1ccc(N2C(C)=CS/C2=C(/C#N)c2nnc(N3CCOCC3)n2-c2ccccc2)cc1 | 4.6% | i | -2.14
O=C(NCCc1c[nH]c2ccccc12)c1c(Cl)nc2sccn12 | -2.6% | i | -0.06
COc1ccc(S(=O)(=O)NC2CCCCC2)c(C)c1C | 1.8% | i | -0.13
Cn1c(=O)c2c(nc(Br)n2Cc2ccccc2Cl)n(C)c1=O | 4.9% | i | -0.97
O=C(c1ccco1)N1C(=O)c2cccc3c(S(=O)(=O)N4CCCC4)ccc1c23 | 2.8% | i | 1.82
O=C(Nc1nc2c(s1)CCc1ccccc1-2)c1cccs1 | -4.7% | i | -0.33
CN(C)CCCOC(=O)c1ccc(Cl)cc1Cl | -3.4% | i | 0.00471
Cc1nc2ccccc2c(=O)n1/N=C/c1ccccn1 | 6.1% | i | -0.53
COc1ccc(C(=O)CSc2nc(N)nc(SC)c2C#N)cc1 | 1.1% | i | .
c1cncc(CNc2c3c(nc4nnnn24)CCCC3)c1 | 5.5% | i | -0.45
CCOC(=O)c1nnn(-c2nonc2N)c1CSc1ccc(C)cc1 | 1.6% | i | 2
CCC(C)C(NC(=O)OCc1ccccc1)C(=O)OCN1C(=O)c2ccccc2C1=O (stereo not given) | -0.1% | i | .
CCOC(=O)C1C(=O)CC(O)(c2ccccc2)CC1c1ccccc1 (stereo not given) | 3.4% | i | -1.57

Among those listed so far, 9 contain a Cl atom.
SMILES | Hsc70 | MT1-MMP reporter | WNV protease inh
CN1CCN(C(=O)CN(c2cccc(Cl)c2)S(=O)(=O)c2ccccc2)CC1 | 2.6% | i | -0.79
CSc1nc(-c2ccc(Cl)cc2)nn1S(=O)(=O)c1ccc(Cl)cc1 | 3.5% | i | .
Clc1cc(Cl)c(OCc2nc(-c3ccccn3)no2)cc1Cl | -0.8% | i | 0.42
O=C(OCc1ccc(Cl)cc1Cl)c1cccnc1Cl | 1.7% | i | .
O=C(CCN1CCN(Cc2ccccc2)CC1)Nc1cccc(Cl)c1 | -0.2% | i | -0.48
O=C(NCc1cccc(Cl)c1)c1cnn2c1NC(c1ccco1)CC2C(F)(F)F (stereo not given) | 5.4% | i | .
O=C(NCCc1c[nH]c2ccccc12)c1c(Cl)nc2sccn12 | -2.6% | i | -0.06
Cn1c(=O)c2c(nc(Br)n2Cc2ccccc2Cl)n(C)c1=O | 4.9% | i | -0.97
CN(C)CCCOC(=O)c1ccc(Cl)cc1Cl | -3.4% | i | 0.00471

The list goes on.
SMILES | Hsc70 | MT1-MMP reporter | WNV protease inh
Cc1ccc(S(=O)(=O)N2CCN(C(=O)COC(=O)c3cc(C)oc3C)CC2)cc1 | 0.0% | i | 0.44
O=C(CCCn1c(=O)[nH]c2ccsc2c1=O)NCc1cccs1 | -0.7% | i | -0.16
CCOC(=O)c1c(NC(=O)CN(C)C)sc(C(=O)N(CC)CC)c1C | 0.8% | i | .
Cc1cc(Nc2nnnn2-c2ccccc2)n(-c2ccc(Cl)cc2)n1 | -3.7% | i | 1.26
COc1ccccc1NC(=O)N1CCN(c2cc(-c3ccccc3)nc3ncnn23)CC1 | -3.5% | i | -0.37
COc1ccc(CNC(=O)c2cc3c(C)nc4ccccc4c3o2)c(OC)c1 | 1.9% | i | 0.76
Cc1ccc(C)c(/C(O)=C2\C(=O)C(=O)N(CCCn3ccnc3)C2c2cccnc2)c1 (stereo not given) | 2.4% | i | .
CCN1C(=O)/C(=C\N2CCN(c3ccccc3)CC2)SC1=S | 3.9% | i | -0.42
OCCCn1c(-c2ccccc2)nc(=S)c2c1CCCC2 | 6.5% | i | .
O=C1CC(c2ccco2)CC(O)=C1C=NCCO (stereo not given) | 1.2% | i | -0.1
COc1ccc(S(=O)(=O)N2CCN(CC(=O)Nc3ccc(F)c(F)c3)CC2)cc1 | 1.9% | i | 1.04
C1CN(c2nc3nonc3n3nnnc23)CCO1 | 0.3% | i | -0.8
CCCCCSc1nc(C)c(CC(=O)O)c(=O)[nH]1 | -7.5% | i | 0.34
Cc1ccc(C(=O)NCCCn2ccnc2)cn1 | -6.6% | i | .
Cc1ccc(C)c(NS(=O)(=O)c2cc(C(=O)NCc3ccco3)ccc2C)c1 | 3.4% | i | .
Fc1ccc(/C=N/c2c(-c3ccc(F)cc3)nc3n2CCS3)cc1 | 3.6% | i | .
O=C(Nc1cccc2ccccc12)N1CCOCC1 | 2.1% | i | 0.21
CC1=C(C(=O)Nc2cc(C)ccn2)C(c2ccc(C)cc2)C2=C(CCCC2=O)N1 (stereo not given) | 4.1% | i | 0.98
CCCNc1nc2c(c(=O)n(C)c(=O)n2C)n1CCC(C)C | -3.5% | i | -0.25
CC(=O)N1CCC(O)(c2cccc(C(F)(F)F)c2)CC1 | 3.8% | i | 1.83
C=CCn1c(-c2cccc3ccccc23)n[nH]c1=S | 2.1% | i | .
COc1ccc(CCNC(=O)Cn2nnc(-c3cccc(OC)c3OC)n2)cc1OC | -7.7% | i | -0.42
Cc1ccc(-n2nnc3c(=O)n(CC(=O)OCc4ccccc4)cnc32)cc1 | -4.1% | i | -0.51
Oc1ccc(-c2nnc(SCC3CCCCC3)o2)cc1 | -6.5% | i | 0.98
O=C(O)c1ccc(NS(=O)(=O)c2ccc3c(c2)OCCO3)cc1 | 1.3% | i | -0.82
Cc1ccc(OCC(=O)N(C)CCc2ccccn2)cc1 | -1.1% | i | -0.97
c1ccn(-c2ncnc3sc4c(c23)CCCC4)c1 | 1.6% | i | -0.83
Cc1noc(C)c1C(=O)OCC(=O)c1c(N)n(CC(C)C)c(=O)n(C)c1=O | 0.0% | i | -1.07
O=C(Nc1ccon1)c1ccc(S(=O)(=O)N2CCCCCC2)cc1 | -1.3% | i | -1.45
N#CC(C(=O)Nc1ccc(Cl)cc1)=C1Nc2ccccc2N1 | -5.2% | i | -0.78
Cc1ccc[n+](-c2nc3ccccc3nc2C(=C=[N-])C#N)c1 | -3.1% | i | .
OC(CNCC(c1ccco1)N1CCCCC1)c1ccccc1 (stereo not given) | -3.5% | i | 0.31
Cn1c(=O)c2c(nc(CN3CCN(Cc4ccccc4)CC3)n2Cc2ccc(F)cc2)n(C)c1=O | 7.1% | i | 0.52
O=C1c2ccccc2-c2nccnc21 | -3.0% | i | -0.03
CCC1CCCCN1C(=O)Nc1cccc(NC(=O)N2CCCCC2CC)c1 (stereo not given) | 0.5% | i | -0.82
CCC(C)Sc1nc2ccccc2c(=O)[nH]1 (stereo not given) | 2.3% | i | .

Screens from PubChem BioAssay.
